Bioassay records as filed in PubChem.
VDR inhibitor: blocks the human vitamin D receptor; Potency, µM, for the others: max response, negative = inhibition, most hits filed as inhibitors; P11473; 400,000 tested, 0.93% active; VDR-SRC2-3 peptide fluorescence polarization, 2 h; AID 504847; active means well fitted inhibition curve with a large enough effect; inconclusive means small, poorly fitted or top-dose-only effect, or another doubt; inactive means no such curve, though single readings can be large or run the other way; further: series mostly up to about 120 µM
Target sequence (P11473 whole entry, looked up): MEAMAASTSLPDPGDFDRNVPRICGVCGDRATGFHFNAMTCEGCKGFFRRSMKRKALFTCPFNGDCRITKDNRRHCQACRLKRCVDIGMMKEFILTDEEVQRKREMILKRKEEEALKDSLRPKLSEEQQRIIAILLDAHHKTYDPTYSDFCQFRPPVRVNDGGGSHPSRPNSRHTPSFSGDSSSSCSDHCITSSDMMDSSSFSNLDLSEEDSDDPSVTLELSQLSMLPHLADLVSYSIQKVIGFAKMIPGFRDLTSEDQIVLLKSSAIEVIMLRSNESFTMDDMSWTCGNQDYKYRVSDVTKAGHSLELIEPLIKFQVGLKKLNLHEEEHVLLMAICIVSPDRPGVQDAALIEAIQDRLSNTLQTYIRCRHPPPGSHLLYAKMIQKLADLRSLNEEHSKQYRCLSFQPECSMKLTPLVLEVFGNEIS
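Compounds are added to VDR with labelled SRC2-3 coactivator peptide and held 2 h at room temperature. Inhibition of the VDR–peptide interaction is then read as a change in fluorescence polarization.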
Active calls of the source: *; ? = inconclusive; & = joins results of further samples; [ ] = remark or other dose. On the % scale 0 is the no-effect control and ±100 the full control effect; potency means the concentration at half of the fitted maximal effect.

Molecule	VDR inhibitor
COc1ccc2[nH]cc(CCNc3ccnc(-c4ccc(C(=O)N(C)C)cc4)n3)c2c1	-14.0%
Cc1ccc(S(=O)(=O)N2CCCCC2)cc1NC(=O)c1ccc2c(c1)OCO2	-18.2%
CCc1ccccc1NC(=O)c1sc(-n2nc(C)c(Cc3ccccc3)c2C)nc1C	14.4%
Cc1ccnc(SCc2cc(=O)c(OC(=O)c3cccs3)co2)n1	6.7%
COc1nnc(-c2ccc(N3CCCCC3)c(NC(=O)COc3ccccc3)c2)c2ccccc12	-10.1%
CC1CCCC(NC(=O)C2CCN(S(=O)(=O)N3CCCCC3)CC2)C1C (stereo not drawn)	-12.1%
NN=C1C(=O)c2cccc3cccc1c23	-13.2%
OCC(O)C(O)C(O)C(O)C1NCCS1 (stereo not drawn)	-32.4%
CCO/C=N/c1c(C#N)c2c(c(=S)n1C)COC(C)(C)C2	10.1%
C=CCNC(=O)NC(=O)COC(=O)[C@H](C)NS(=O)(=O)c1c(C)c(C)cc(C)c1C	-10.3%
Cc1c(Cl)cccc1NCC(=O)Nc1ccc(Cl)cc1F	-1.8%
CSc1nnc2c(n1)OC=Nc1ccccc1-2	0.6%
CC(C)OCc1c(C(=O)Nc2nccs2)oc2ccccc12	7.2%
COc1ccccc1NC(=O)c1ccc(N)cc1	-11.4%
O=C(Nc1ccc(F)cc1)C1CCCCC1	-15.8%
COc1ccc(OC)c(NC(=O)COC(=O)Cc2ccsc2)c1	9.7%
CCOC(=O)C1Nc2ccccc2C2C(O)C(O)CC12 (stereo not drawn)	-21.2%
CCCNC(=S)Nc1cccc(C(F)(F)F)c1	-9.4%
CCNC(=S)N1CCN(c2ccccn2)CC1	33.5%[activator]
Cc1cc(NS(=O)(=O)c2ccc(NC(=O)NC3CCCCC3)cc2)no1	-13.0%
Clc1cccc2c1CN(C1=NCCN1)C2	7.1%
CCOc1ccccc1NC(=O)COC(=O)Cc1cccs1	-15.5%
Cc1ccc(C(CC(=O)NCCCN(C)C)c2ccc(OC(C)C)cc2)cc1 (stereo not drawn)	-4.5%
O=C(Cn1cnc2c(nnn2Cc2ccccc2)c1=O)N1CCCc2ccccc21	-9.0%
COc1ccc(OC)c(-c2csc(NC(=O)Cc3ccc(F)cc3)n2)c1	2.2%
O=S(c1ccc2ccccc2c1)c1cnns1 (stereo not drawn)	-17.4%
CCCN(CCC)CCCNC(=S)Nc1ccc2nc(N3CCN(CC)CC3)cc(C)c2c1	-0.3%
CC(C)c1nnc(NC(=O)C2CCCN2C(=O)Nc2ccccc2[N+](=O)[O-])s1 (stereo not drawn)	1.8%
Nc1ncnc2c1ncn2[C@@H]1O[C@H](CNC(=O)[C@@H](N)C2CCCCC2)[C@@H](O)[C@H]1O	-2.5%
O=C(COc1ccccc1Cl)NCc1ccccc1	23.4%
COc1cccc(NC(=O)N2CCC(CN3CCOCC3)CC2)c1	15.6%
O=C(NCc1cccs1)C1CCCN1C(=O)Nc1ccccc1 (stereo not drawn)	-11.2%
Cc1nc(Cl)c2c(n1)NC1=C(O2)C(=O)CCC1	4.4%
Cc1cc(C)n2nc(C(=O)OCC(=O)NCc3ccccc3)nc2n1	-29.4%
Cc1ccc(NC(=O)CNc2ccccc2CN(C)C2CCCCC2)cc1	1.7%
O=C(O)c1ccc2c(c1)C(=O)N(CCc1ccccc1)C2=O	-4.5%
O=C(O)c1nn(CC(=O)N2CCN(S(=O)(=O)c3ccc(Cl)cc3)CC2)c(=O)c2ccccc12	25.8%
O=C(N=C1c2ccccc2CN1c1ccccc1)c1cccc([N+](=O)[O-])c1	6.5%
CCn1c(CC(=O)Nc2ccccc2)nnc1SCC(=O)Nc1nncs1	12.1%
CCc1nc(NCCN2CCOCC2)c2oc3ccccc3c2n1	-5.6%
Cc1cccc(NC(=O)Cn2c(C)c(C#N)c3ccccc32)c1C	17.5%
COc1ccc(C)c2sc(=NC(=O)c3cccc(N4C(=O)CCC4=O)c3)n(C)c12	-4.5%
Cc1ccc(/C=N\NC(=O)C2CC(=O)N(c3ccccc3)C2)o1 (stereo not drawn)	7.0%
S=C(Nc1ccc2c(c1)OCO2)Nc1ccc2c(c1)OCO2	-21.4%
COc1ccccc1CNc1nc2c(S(=O)(=O)c3ccc(C)c(C)c3)nnn2c2ccc(Cl)cc12	-11.2%
O=C1CCC(C(=O)N2CCCO2)CN1Cc1cccc(C(F)(F)F)c1 (stereo not drawn)	5.2%
CC(C)=CC(=O)OCC(=O)Nc1cc(C)ccc1C	-2.4%
CC(=O)NC1C2CN3CCN(C2)CC1(Cc1ccccc1)C3 (stereo not drawn)	3.0%
N#Cc1c(NC(=O)CSc2nnc(-c3ccncc3)n2CC2CCCO2)sc2c1CCCC2 (stereo not drawn)	8.6%
CC(=O)N1C2CCCCC2S[C@H]2CCCCC21 (stereo partly drawn)	-20.9%

Some of these compounds in order of molar mass, ascending:
Molecule	VDR inhibitor
O=C(COc1ccccc1Cl)NCc1ccccc1	23.4%
CCc1nc(NCCN2CCOCC2)c2oc3ccccc3c2n1	-5.6%
O=C(NCc1cccs1)C1CCCN1C(=O)Nc1ccccc1 (stereo not drawn)	-11.2%

Remaining list, next part:
Molecule	VDR inhibitor
O=C1c2ccccc2C(=O)N1CCCCN(C(=O)c1cc2ccccc2oc1=O)c1ccc(Cl)cc1	-25.8%
O=C(O)C1CCCN1S(=O)(=O)c1cccc2nsnc12 (stereo not drawn)	-14.0%
O=C(O)c1ccccc1Nc1ccc([N+](=O)[O-])cc1	-7.5%
NC(=O)c1ccsc1NC(=O)COc1ccccc1	-17.5%
COc1cc(-c2nc3ccccn3c2/N=C/c2cc(OC)c(O)cc2Cl)ccc1O	-7.9%
CC(=O)c1cccc(NC(=O)Cc2coc3cc4c(cc23)CCC4)c1	5.6%
Cn1nnnc1P(=O)(c1ccccc1)c1ccccc1	11.2%
CC(=O)N1CCC(C(=O)Nc2ccc(S(=O)(=O)N3CCCCC3)cc2)CC1	10.7%
CN(C)c1ccc(C(CNC(=O)c2ccc(C(C)(C)C)cc2)N2CCCC2)cc1 (stereo not drawn)	0.5%
C#CC(C)(C)NC(=O)c1ccc(-c2ccccc2F)cc1	-0.9%
O=C(NCCCNC(=O)c1ccc(Cl)cc1Cl)c1cnccn1	10.7%
COc1ccc2[nH]c3c(c2c1)CCNC3(C)CCc1ccc(Cl)nc1 (stereo not drawn)	?
CC12CCC(C(=O)N(CCCCN3CCN(c4ccccn4)CC3)C1=O)C2(C)C (stereo not drawn)	-23.0%
COc1ccc(CNC(=O)c2ccc(-c3ccccc3)cc2)cc1	-7.2%
COc1cc(/C=C/C(=O)O)cc(S(=O)(=O)Nc2ccc3nc(SC)sc3c2)c1OC	0.6%
O=[N+]([O-])c1ccc(S(=O)(=O)N2CCC3(CC2)OCCN3S(=O)(=O)c2cccs2)cc1	2.3%
COc1ccc(C)cc1-n1nnnc1SCC(=O)NNC(=O)c1ccc([N+](=O)[O-])cc1	-2.2%
Cc1ccc(/C=N/NC(=O)CNC(=O)c2cccs2)o1	-2.5%
CC1CC(C)CN(C(=O)CSc2ccsc2[N+](=O)[O-])C1 (stereo not drawn)	-4.6%
CNC(=S)NCc1ccc2[nH]c3c(c2c1)CCCC3	-13.3%
Cc1cccc(-n2ncc3c(NCc4cccs4)ncnc32)c1	9.2%
CCCCC/C=C\C/C=C\C/C=C\CCCCCCC(=O)O	-15.2%&-24.0%
Cc1ccc(C)c(CSc2c(C(C)C)cnc3c2c(=O)n(C)c(=O)n3C)c1	15.7%
CC(C)C[C@H](NC(=O)[C@H](Cc1ccccc1)NC(=O)[C@H](Cc1ccccc1)NC(=O)[C@@H](N)CO)C(=O)N[C@@H](CCCN=C(N)N)C(=O)N[C@@H](CC(N)=O)C(=O)O	-6.4%
COc1cc(C(=O)Oc2cccc(C)c2)cc(OC)c1OC	15.3%
CCOc1ccc(CCNC(=O)c2cc3c(=O)n(C)c4ccccc4c3n2C)cc1OCC	-10.9%
CCC(=O)Nc1ccc2nc(SCC(=O)N3CCCC3)sc2c1	0.3%
CCNc1nc(NC(C)C)nc(OCCOC(=O)Nc2ccccc2)n1	19.9%
COc1ccc(-c2cccc(NS(=O)(=O)c3ccccc3[N+](=O)[O-])c2)nn1	-2.4%
COc1cc(/C=C2\NC(=S)NC2=O)ccc1OCc1cccc(C(=O)O)c1	-10.0%
CC(=O)Nc1cc(NC(C)=O)cc(C(=O)OCC(=O)c2ccc3c(c2)OCO3)c1	-3.3%
CC(=O)NCCCC(=O)NC(CCC(=O)OCc1ccccc1)C(=O)OCc1ccccc1 (stereo not drawn)	-10.4%
Cc1ccc(S(=O)(=O)c2nc(-c3ccccc3Br)oc2N(C)C)cc1	-8.5%
O=C(NCCO)c1ccc2nc(-c3ccco3)c(-c3ccco3)nc2c1	35.5µM*
CCOc1ccc(OCc2ccc(C(=O)N3CCCC3)o2)cc1	0.3%
CC1CCCCC1NC(=O)/C(C#N)=C/c1ccc(OCC(N)=O)cc1 (stereo not drawn)	-14.4%
Cc1nn(-c2ncc(C(F)(F)F)cc2Cl)c(=O)n1-c1c(F)cccc1F	-4.4%
COc1cccc(N2CCN(Cc3nc(N)nc(Nc4ccccc4)n3)CC2)c1	-4.3%
CC(C)(C)c1csc(NC(=O)c2ccc(Br)o2)n1	-19.7%
CCCNC(=O)CCNC(=O)[C@H](O)C(C)(C)CO	4.2%
O=C(O)COc1ccccc1/C=N/NC(=O)CN1CCN(Cc2ccccc2Cl)CC1	0.6%
Cc1cccc(NS(=O)(=O)c2ccc(-c3cnc(C4CC4)o3)cc2)c1C	-11.6%
COC(=O)Cn1ncn2c(cc3oc(C)cc32)c1=O	18.2%
Cc1cc(C)n(-c2ccc(NC(=O)C3CCCCN3C(=O)c3occc3C)cc2)n1 (stereo not drawn)	-17.9%
Nc1ccccc1C(=O)Nc1cccc2ccccc12	5.1%
CCN(CC)CCCNC(=S)N1CCN(c2nc(-c3ccc(F)cc3)cs2)CC1	9.3%
COc1ccc(S(=O)(=O)Nc2ccc3c(c2)OCO3)cc1C	3.8%
COc1ccc(-c2n[nH]c(C)c2-c2ccc(OC)c(OC)c2)c(O)c1	13.7%
CN(CCC#N)C(=O)CSc1nc2scc(-c3ccccc3)c2c(=O)[nH]1	6.3%
O=C(NCc1ccccc1)[C@]1(C(F)(F)F)C[C@H](CCc2ccccc2)CCCO1	-18.4%&-4.3%

The list goes on:
Molecule	VDR inhibitor
O=C(CNC(=O)c1ccco1)Nc1ccc2c(c1)OCCO2	20.1%
Cc1cc(Nc2ccccc2)nc2cc(O)ccc12	5.9%
Cc1ccc2c(CC(=O)Nc3c(C(=O)c4ccc(F)cc4)oc4ccccc34)coc2c1C	12.2%
Cc1cc(=O)n(Cc2cccc(Cl)c2)c2c1c(C)nn2C	5.8%
COc1cc(NS(=O)(=O)c2ccc(F)cc2)c(OC)cc1NC(C)=O	-9.0%
COc1ccc(/C=N/NC(=O)c2ccn[nH]2)cc1CN1CCOCC1	9.6%
COCc1cc(=O)[nH]c(/N=C(\N)Nc2ccccc2C)n1	-1.8%
N#CC1=C(N)Oc2c(ccc3cccnc23)C1c1cccnc1 (stereo not drawn)	13.4%
CCC(C)[C@H](NC(=O)Nc1cccc(Br)c1)C(=O)OC (stereo partly drawn)	8.8%
O=C(C1=NN(c2ccccc2)C2C(=O)N(c3ccccc3Cl)C(=O)C12)c1ccccc1 (stereo not drawn)	-8.7%
CCN(Cc1ccc(OC)cc1)c1ccc(-c2nc(-c3ccncc3)no2)cc1[N+](=O)[O-]	-3.0%
COc1ccc(NC(=O)Nc2ccc3c(c2)C(=O)N([C@H](C)CO)C[C@H](C)[C@@H](CN(C)C(=O)NC2CCCCC2)O3)cc1	-7.4%
CC(C)NC(=O)CN1C(=O)C(=O)c2ccccc21	7.0%
CCc1cccc(CC)c1-n1c(SCC(=O)N2CCc3ccccc3C2)nnc1-c1cccnc1	-2.1%
COc1ccc(C(=O)/C=C/c2ccccc2)c(OC)c1	-21.9%
COc1ccc(C(=O)NCc2ccc3c(c2)CCN3C(=O)c2ccc(Cl)cc2)c(OC)c1	13.2%
Cc1ccc(Cn2nnc3c(=O)n(CC(=O)OCc4ccccc4)cnc32)cc1	0.4%
Cc1cccc(C)c1NC(=O)C(c1ccccc1)N1CCN(C(=O)c2ccco2)CC1 (stereo not drawn)	12.7%
CN1CCN(c2nc(Nc3ccccc3)nc(N)c2[N+](=O)[O-])CC1	1.5%
CCOc1ccc(S(=O)(=O)Nc2cc(NS(=O)(=O)c3ccc(OCC)cc3)cc(C(=O)O)c2)cc1	-17.5%
COc1ccc(NC(=O)CN(C)CC(=O)Nc2cccc(C(C)=O)c2)cc1	-6.6%
COc1ccccc1N1CCN(CCN(C(=O)C2CCCCC2)c2ccccn2)CC1	1.2%&0.4%&0.7%
C=CCOc1ccccc1/C=C/C(=O)O	-1.9%
O=C(NCCc1ccc(F)cc1)C(=O)NCC(c1ccc2c(c1)OCO2)N1CCOCC1 (stereo not drawn)	5.1%
COc1ccc(C)cc1CN1C(=O)c2ccccc2C1=O	9.9%
CCOC(=O)Cn1nnc(-c2cccc(OC)c2)n1	9.0%
Cc1ccc(C)c(N2CCN(C(=O)c3cccc(-n4c(C)nc5cccnc54)c3)CC2)c1	0.2%

Given with values ahead of the structure: part of the list above.
VDR inhibitor | Molecule
0.4% | Cc1ccc(Cn2nnc3c(=O)n(CC(=O)OCc4ccccc4)cnc32)cc1
-7.4% | COc1ccc(NC(=O)Nc2ccc3c(c2)C(=O)N([C@H](C)CO)C[C@H](C)[C@@H](CN(C)C(=O)NC2CCCCC2)O3)cc1

The list is partial, so the mix of outcomes need not match the whole.
